Screening data from PubChem.
KCNQ2 pot: potentiators of rat KCNQ2 potassium channel | O88943 | CHO-K1 KCNQ2, FluxOR thallium flux fluorescence; active compounds read high | B-score at 10 µM | 310,000 tested, 0.54% active | AID 2239;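 active = fluorescence ratio B-score at least 3 SD of library B-scores, with initial fluorescence B-score within 3 SD, cut at about 5.3 in these data; same plate scores as AID 2156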;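 also: B-score of peak minus minimum over baseline fluorescence ratio after K+ and Tl+ stimulus; positive B-score means potentiation of KCNQ2 with more thallium influx and brighter signal; only the inactives scoring about 0 or higher are listed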
Target sequence (O88943 whole entry, looked up): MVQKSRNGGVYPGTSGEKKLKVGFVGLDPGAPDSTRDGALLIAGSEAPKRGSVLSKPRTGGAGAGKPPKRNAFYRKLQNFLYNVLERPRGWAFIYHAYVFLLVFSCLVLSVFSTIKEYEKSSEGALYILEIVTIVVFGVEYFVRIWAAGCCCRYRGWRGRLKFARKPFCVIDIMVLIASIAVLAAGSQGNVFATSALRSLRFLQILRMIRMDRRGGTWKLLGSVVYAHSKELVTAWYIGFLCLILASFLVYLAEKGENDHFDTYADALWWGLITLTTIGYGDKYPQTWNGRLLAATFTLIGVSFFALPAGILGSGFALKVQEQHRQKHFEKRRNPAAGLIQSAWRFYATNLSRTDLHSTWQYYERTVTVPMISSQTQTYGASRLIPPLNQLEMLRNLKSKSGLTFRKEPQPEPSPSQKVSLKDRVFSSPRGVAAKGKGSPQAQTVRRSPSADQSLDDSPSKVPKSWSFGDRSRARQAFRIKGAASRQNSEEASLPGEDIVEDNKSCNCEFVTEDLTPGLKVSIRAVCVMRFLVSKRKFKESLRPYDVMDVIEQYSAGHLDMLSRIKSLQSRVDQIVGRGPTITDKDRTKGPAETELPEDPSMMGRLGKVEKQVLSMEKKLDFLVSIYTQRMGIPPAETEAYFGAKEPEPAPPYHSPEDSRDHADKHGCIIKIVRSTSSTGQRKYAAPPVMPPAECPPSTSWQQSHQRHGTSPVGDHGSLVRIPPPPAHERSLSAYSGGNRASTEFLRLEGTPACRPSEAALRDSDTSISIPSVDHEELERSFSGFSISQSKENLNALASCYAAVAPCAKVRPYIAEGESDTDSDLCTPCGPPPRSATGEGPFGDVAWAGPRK
KCNQ2 pot baseline: recorded beside KCNQ2 pot, whose call it bears; B-score; compound at 10 µM; measured here: initial fluorescence intensity artifact check;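 brightness before thallium and not channel activity; 0 = typical well and far values either way flag optical interference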
* hit, by the source's call.

SMILES	KCNQ2 pot	KCNQ2 pot baseline
CCn1c(Cn2nnc(-c3ccccc3)n2)nnc1SCC(=O)N1CCOCC1	0.62	-0.88
CCOC(=O)c1c(NC(=O)CC)sc(C(=O)N2CCCCC2)c1C	0.37	-1.7
COc1ccc(CCC(=O)Nc2ccc3c(c2)OCCO3)cc1	1.7	-1.2
CCOc1ccc(NC(=O)CNS(=O)(=O)c2c(C)cc(C)cc2C)cc1	0.64	-0.97
COc1ccc(-c2cc(C(=O)NN)n(-c3ccccc3)n2)cc1	3.1	-1.5
Cc1nc(C(=O)O)sc1C1(C)CC(c2cccc([N+](=O)[O-])c2)=NO1 (stereo not given)	0.27	1.6
CCc1cc(-c2ccc3c(c2)COc2c4ccccc4nn2-3)on1	0.07	-0.78
CSc1ccc(C(=O)/C=C/c2ccc(N)cc2)cc1	2.2	-1.7
COc1ccc(S(=O)(=O)N/N=C\c2ccc3c(c2)OCO3)c(OC)c1	1.5	0.4
COc1ccc2c(c1)c(=O)oc1c(C)c(OCc3cc(C(=O)O)oc3C)ccc12	0.64	-0.63
CC1CCCN(c2ccc(C(=O)NCC3CCCO3)cn2)C1 (stereo not given)	2.4	-3
O=C(Cn1ccc2ccccc2c1=O)NCCC(=O)Nc1cccnc1	0.79	-2.9
CCN1C(=Nc2ccc(Cl)cc2)SC/C1=C\C(=O)OC	0.12	-0.89
COc1ccccc1Cn1c(=S)[nH]c2cc(C(=O)NCCN3CCOCC3)ccc2c1=O	0.73	-0.41
Cc1cccc(C(=O)N2CCN(c3ccccn3)CC2)c1	0.3	1.1
Cc1ccc(C)n1-c1ccsc1C(=O)CC#N	0.03	-0.41
CC(NS(=O)(=O)c1ccc(F)cc1)C(c1cccs1)N1CCN(C)CC1 (stereo not given)	0.22	1.1
CC1CC(C)CN(c2ncnc3c2cnn3C)C1 (stereo not given)	0.65	0.42
Cc1ccccc1OCC1CNC(=O)O1 (stereo not given)	0.1	-0.32
Cc1ccc2cc3c(NC(=O)C(C)C)nn(C)c3nc2c1	1.7	-2
Cc1cccc2cc(C#N)c(NCc3ccccc3)nc12	2.2	1.6
CC(OC(=O)c1oc2ccccc2c1COc1ccccc1)C(=O)NC(N)=O (stereo not given)	0.96	-1.3
Cn1c(=O)c2c(nc(OC/C=C/c3ccccc3)n2C)n(C)c1=O	0.02	1.2
CC(C)(C)CC(=O)N1CCC(c2nc3c(nnn3Cc3c(F)cccc3Cl)c(=O)[nH]2)CC1	0.79	-0.12
O=C(c1cccc(F)c1)N1CCCc2ccccc21	1	0.43
Cc1cccc(C)c1N(CC(=O)N1CCN(c2ccccc2F)CC1)S(C)(=O)=O	0.3	-1.2
CN1C(=O)NC(c2cccc([N+](=O)[O-])c2)C2=C1CCCC2=O (stereo not given)	0.6	-0.17
COc1cc(OC)cc(C(=O)NCCNC(=O)c2ccccc2)c1	0.35	-5.5
CC(C)(C)OC(=O)NCC12C=CC(O1)C1C(=O)N(Cc3ccccc3)C(=O)C12 (stereo not given)	0.06	-0.02
COCCNS(=O)(=O)c1cc(-c2nn(C)c(=O)c3ccccc23)ccc1C	0.06	0.01
O=c1[nH]c(CN2CCN(CCO)CC2)nc2ccccc12	0.98	0.05
O=C(c1ccccc1)n1ccc(-c2cccs2)n1	8.6*	0.01*
Cc1scc(C(=O)O)c1-c1c(C(=O)O)csc1C	0.49	0.22
C=CCn1c(=N)n(CC(=O)c2ccc(OC)cc2)c2ccccc21	0.61	0.57
CCCOc1ccc(-c2nc(-c3ccc(N)cc3)cs2)cc1	1.8	0.94
COc1ccccc1NC(=O)NC(N)=O	0.03	0.68
CN(C1CCCCC1)S(=O)(=O)c1ccc2c(c1)c(=O)c(C(=O)N1CCc3ccccc3C1)cn2C	0.11	0.54
CCOC(=O)c1c(NC(=O)COC(=O)c2ccccn2)sc2c1CCC2	2.3	-0.9
C=CCn1c(=O)c2ccccc2n2c(SCC(=O)Nc3sc(C)c(CC)c3C(=O)OCC)nnc12	1.4	-0.02
CC(C)(C)NC(=O)Cn1c(SCC(=O)Nc2nccs2)nc2ccccc21	0.58	1.2
Cn1c(SCc2ccccc2)nnc1-c1cnccn1	1.3	2.7
COc1cc(C(C2C(=O)CC(C)(C)CC2=O)C2C(=O)CC(C)(C)CC2=O)ccc1O	4	-0.04
COC(=O)CCC(=O)NC(=S)Nc1c(C)cccc1C	1.5	-0.87
CCCc1nnc(NC(=O)c2ccncc2)s1	0.1	0.05
O=C(NCc1ccc(F)cc1)C1CCN(S(=O)(=O)N2CCCC2)CC1	1.1	-0.65
CCCNC(=O)COc1ccccc1[N+](=O)[O-]	0.76	3.1
C[N+](C)(C)C/C=C1/COCO1	0.6	-0.98
CN(C)CCCNS(=O)(=O)c1ccc(N2CCN(Cc3ccc4c(c3)OCO4)CC2)c([N+](=O)[O-])c1	1.2	0.16
NC(=O)c1ccsc1NC(=O)COC(=O)c1nc(Cl)ccc1Cl	1.3	-1.4
c1ccc(C2NCCn3cccc32)cc1 (stereo not given)	0.36	-0.29
CC(C)(C)NS(=O)(=O)c1ccc(NC(=O)C(Sc2ccccc2)c2ccccc2)cc1 (stereo not given)	0.9	0.2
O=S(=O)(c1ccc(F)cc1)N1CCN(CC2CC3C=CC2C3)CC1 (stereo not given)	0.67	-0.01
COCCCNC(=O)CN1C(=O)/C(=C/c2ccccc2C)Sc2ccccc21	0.61	0.51
COc1ccccc1C1C(C(C)=O)=C(O)C(=O)N1c1ccc(O)cc1 (stereo not given)	0.12	-1.1
COc1ccc(Cc2ccc(OC)c(N)c2)cc1N	0.29	-0.47
CCc1c(C)sc(NC(=O)c2cc(C)no2)c1C#N	0.22	0.01
COc1ccccc1NS(=O)(=O)c1cccc(C(=O)NN=C2CCCCCC2)c1	0.25	1.2
NS(=O)(=O)c1ccc(CCNC(=O)CC(c2ccccc2)c2ccccc2)cc1	0.8	-0.41
COc1cc(OC)cc(-c2cc(N)n(S(=O)(=O)c3cccc4nsnc34)n2)c1	4	-0.23
CCCCn1c(=O)[nH]c(=O)c2c1ncn2Cc1ccco1	0.89	-2.5

Next compounds follow:
SMILES	KCNQ2 pot	KCNQ2 pot baseline
COCc1[nH]c(=S)c(C#N)cc1C(=O)OC	0.33	-0.31
CCCN(Cc1ccccc1)C(=S)Nc1ccc(OC(F)F)cc1	1.4	-1.3
O=C(Nc1nc(=S)ss1)c1c(F)cccc1F	0.25	-0.58
Nc1cc(=O)[nH]c(SCC(=O)c2ccc(F)cc2)n1	0.3	-3.6
CC(C)CNC(=O)COC(=O)c1ccc(F)cc1Cl	1.2	0.44
COc1ccc(CCn2c(-c3ccc(Cl)cc3)n[nH]c2=S)cc1OC	0.15	-0.86
CCCCNC(=O)c1onc(CSc2ccccc2C)c1C(=O)O	0.22	-1.1
CCc1ccc(OCC(=O)NCc2ccco2)c(Br)c1	7.8*	-0.08*
O=C(NC1CCCCCC1)c1ccc(Cl)c(S(=O)(=O)N2CCOCC2)c1	1.3	0.06
COc1cccc(NC(=O)NCCC2=CCCCC2)c1	2.7	-0.11
Cc1ccc(NS(=O)(=O)c2cc(NC(=O)c3ccc4c(c3)NC(=O)CS4)ccc2C)c(C)c1	0.01	-0.31
COc1ccccc1N1CCN(C(=O)C(=O)c2c(C)[nH]c3ccccc23)CC1	0.64	0.63
CCOC(=O)CSc1nnc(C)c(C)n1	0.45	-0.09
COCCNC(=O)CN1CCN(Cc2cccc(Cl)c2)C1=O	0.86	-0.31
C/C(=N\NC(=O)c1ccoc1C)c1ccc(Cl)s1	0.07	0.08
CCOc1ccc(S(=O)(=O)N2CCC(C(=O)NCc3cccnc3)CC2)cc1Cl	1.5	0.31
CCOC(=O)C(=O)c1cn(C2OCC(OC(C)=O)C(OC(C)=O)C2OC(C)=O)c2ccccc12 (stereo not given)	1.2	-0.01
O=C(CCn1cnc2ccccc21)N=Nc1c(O)[nH]c2ccccc12	1.4	0.01
Cc1sc2nc(CSC(C)C(=O)N(C)CC(=O)Nc3ccccc3C(F)(F)F)[nH]c(=O)c2c1C (stereo not given)	1.5	0.57
COc1ccccc1NC(=O)c1c(C)oc2c1CCCC2	0.22	0.83
Cc1cc(NC(=O)CSc2nnc3c(C)cc4c(C)ccc(C)c4n23)no1	0.01	0.23
COc1ccc2nc(C)cc(SCC(=O)N/N=C/c3cccc4ccccc34)c2c1	0.03	0.08
Cc1ccc(S(=O)(=O)NC(=O)c2ccc(Br)o2)cc1	0.76	1.1
CC(NC(=O)c1ccc(Br)o1)C1CCCO1 (stereo not given)	0.66	-0.23

A different layout for some results above.
Values run as follows: KCNQ2 pot, KCNQ2 pot baseline
Cc1sc2nc(CSC(C)C(=O)N(C)CC(=O)Nc3ccccc3C(F)(F)F)[nH]c(=O)c2c1C (stereo not given)
  1.5, 0.57
COc1ccccc1NC(=O)c1c(C)oc2c1CCCC2
  0.22, 0.83
Cc1cc(NC(=O)CSc2nnc3c(C)cc4c(C)ccc(C)c4n23)no1
  0.01, 0.23
COc1ccc2nc(C)cc(SCC(=O)N/N=C/c3cccc4ccccc34)c2c1
  0.03, 0.08

Additional entries follow:
SMILES	KCNQ2 pot	KCNQ2 pot baseline
O=C(NCCCN1CCCC1=O)c1ccc2c(=O)n(-c3ccccc3F)c(=S)[nH]c2c1	1.7	-1.1
COc1ccc(S(=O)(=O)c2c[nH]c(=S)[nH]c2=O)cc1Cl	0.61	-0.06
CCOc1ccc(S(=O)(=O)N2CCOCC2)cc1NC(=O)C1=COCCO1	0.33	-2.5
O=S1(=O)CCN(Cc2ccccn2)CC1	0.17	-1.2
CC(C)Nc1ccc(C(CC(N)=O)NC(=O)c2ccc(Br)cc2)cc1[N+](=O)[O-] (stereo not given)	0.3	-1.7
CCOC(=O)C1CCN(S(=O)(=O)c2ccc(-c3cc(C(F)(F)F)n(C)n3)s2)CC1	0.93	-0.2
CC1CC(C)CN(CCCNS(=O)(=O)c2ccc3c(c2)oc(=O)n3C)C1 (stereo not given)	0.36	0.01
Cc1ccc(CNc2cnccn2)cc1	0.54	-0.13
CCOC(=O)C1(CCOc2ccccc2)CCN(Cc2ccc(OCC)c(CO)c2)CC1	1.1	-1.4
Cc1ccccc1OCCn1c(=S)[nH]c2ccccc21	0.05	-2.3
C/C(=N\NC(=O)c1c(C)nc2ccccn12)c1ccccc1F	0.48	-0.24
CCc1nc(N)c(C#N)c(-c2ccc(O)c(OC)c2)c1C	0.46	-1.4
NS(=O)(=O)c1ccc(NC(=O)CN2CCN(S(=O)(=O)/C=C/c3ccccc3)CC2)cc1	0.23	-0.29
COc1ccc(CCNC2CC(C)N(C)CC2C)cc1OC (stereo not given)	0.89	0.14
CCOC(=O)CSc1nnc2c3ccccc3n(CC)c2n1	0.01	-2.1
Cc1ccc(S(=O)(=O)N(C)c2ccc(C(=O)Nc3cccnc3)cc2)cc1	1.6	-0.1
CCCC1Cc2c(sc(NC(=S)NC(=O)c3ccccc3)c2C#N)CO1 (stereo not given)	1.1	-0.29
Cc1cc(NC(=O)c2cc(-c3cccs3)on2)no1	0.22	-0.94
Oc1ccccc1N1CCN(CC(O)COCc2ccccc2Cl)CC1 (stereo not given)	0.98	-2.4
COc1ccc(CNC(=O)COC(=O)Cc2ccc(Cl)cc2Cl)cc1	1.5	-0.87
Cc1ccc(S(=O)(=O)N2CCOCC2)cc1C(=O)NC1CCCCCC1	0.08	1.2
CN(C)CCCNC(=O)c1cc(Br)ccc1Cl	0.09	0.32
O=C(CSc1nc2ccccc2c(=O)[nH]1)N1CCCCCC1	0.01	-0.28
Cc1ccc(S(=O)(=O)NCCc2nnc3ccc(SCC(=O)Nc4nc5ccccc5s4)nn23)cc1	0.23	0.11
COc1cc(OC)c(OC)cc1CN1CCN(Cc2ccc(SC)cc2)CC1	1.5	-1.3
COc1ccc2c(c1)N(S(=O)(=O)c1ccccc1)CCC2=O	0.49	-1
CCC(C)n1cnc2c(c1=O)c1nc3ccccc3nc1n2Cc1ccc2c(c1)OCO2 (stereo not given)	0.06	0.55
CCc1ccccc1NC(=O)CSc1nnc([C@@H]2CCCN2C(=O)OC(C)(C)C)o1	2.7	-0.17
c1ccc(-c2[nH]ncc2-c2nc3ccccc3[nH]2)cc1	0.06	0.11
COc1ccc(NC(=O)c2sc(NC(=O)C3CC3)nc2C)cc1	0.81	-2.2
NC(=O)CSc1nc(-c2ccccc2Cl)ns1	1.2	-1.3
O=C(O)c1ccc(-c2ccccc2C(F)(F)F)o1	0.6	-0.03
Cc1ccc2c(c1)c1nc3ccccc3nc1n2C	1.5	0
CN(CC(=O)NCc1ccc(Cl)cc1)S(=O)(=O)c1cccs1	0.88	0.22
O=C(CN1C(=O)CC(c2ccccc2)S(=O)(=O)c2ccccc21)NC1CCCC1 (stereo not given)	0.09	-0.81
COc1cccc(CNC(=O)c2ccc(N3CCOCC3)c([N+](=O)[O-])c2)c1	1.3	1.1
NC(=O)CCS(=O)(=O)c1ccccc1	0.6	-0.17

Whole records, looked up by structure. Order of values: KCNQ2 pot, KCNQ2 pot baseline
Listed for CCOC(=O)C1CCN(S(=O)(=O)c2ccc(-c3cc(C(F)(F)F)n(C)n3)s2)CC1 → 0.93, -0.2
Listed for CCc1nc(N)c(C#N)c(-c2ccc(O)c(OC)c2)c1C → 0.46, -1.4
Listed for Cc1sc2nc(CSC(C)C(=O)N(C)CC(=O)Nc3ccccc3C(F)(F)F)[nH]c(=O)c2c1C (stereo not given) → 1.5, 0.57
Listed for CC(NS(=O)(=O)c1ccc(F)cc1)C(c1cccs1)N1CCN(C)CC1 (stereo not given) → 0.22, 1.1

A portion of the library; rates above refer to the full screens.
